# Compound activity: PubChem, National Center for Advancing Translational Sciences (NCATS)
# gsp agonist – gsp mutant agonism; gsp mutant cells, cAMP HTRF, 30 min; control for the full effect not named in the record; Potency, µM (titrated, usually from 76.9 µM), for inactives: at the top dose activation (cAMP increase), actives largely listed as activators; 340,000 tested, 0.13% active; AID 624287; active = well fitted activation curve with a large enough effect; inconclusive = small, poorly fitted or top-dose-only effect, or another doubt; inactive = no such curve, though single readings can be large or run the other way; cell line not stated here;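 note: phosphodiesterase inhibitor Ro 20-1724 added with compounds to block cAMP breakdown; potency is the fitted concentration of half-maximal effect; nearly all actives have a fitted effect of over 60% in size; about a fifth of the inactives were tested at one dose only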
#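 Cells in DMEM/10% FBS with G418 were pretreated with compounds in DMSO plus […] (300 uM stock) for 30 min at 37C. cAMP was measured by HTRF (cAMP-d2 plus anti-cAMP antibody-K) after 30 min at room temperature.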
# ClpP mod – qHTS Assay for Activators of ClpP. ATP-dependent Clp protease proteolytic subunit (Bacillus subtilis (strain 168)), P80244. purified B. subtilis ClpP, FRET peptide cleavage, 20 min. Potency, µM (top dose mostly 57.5 µM), inactives show at the top dose activity change, negative = active. 340,000 tested, 1.9% active. AID 651965, 2013; active = well fitted falling curve with a large enough effect; inconclusive = small, poorly fitted or top-dose-only effect; inactive = no such curve, though single readings can be large or run the other way; note: potency is the fitted concentration of half-maximal effect; the source files actives as falling curves though it sought activators and does not explain the sign; nearly all actives have a fitted effect of over 65% in size; many hits overshoot -100%
# Target sequence (P80244 whole entry, looked up): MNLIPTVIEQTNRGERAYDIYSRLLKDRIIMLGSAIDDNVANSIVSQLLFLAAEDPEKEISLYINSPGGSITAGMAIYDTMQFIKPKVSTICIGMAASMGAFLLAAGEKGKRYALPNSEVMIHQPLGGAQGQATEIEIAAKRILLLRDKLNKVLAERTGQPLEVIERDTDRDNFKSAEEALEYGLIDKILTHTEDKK
#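 FRET quenching reversal measured ClpP activation: 10 microg/mL B. subtilis ClpP at pH 8 with the FRET-FV decapeptide, read at 430 nm after 320 nm excitation. The 20-min minus 0-min signal was scaled between DMSO/no-enzyme wells and ADEP (5.8 microM final).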
# Menin MLL FP FL – menin-MLL binding inhibition, fluorescein peptide; Fluorescence polarization, fluorescein-MLL peptide displacement from menin; FP activity change, % at 61.4 µM; 290,000 tested, under 10 active; AID 1766; inconclusive = falling polarisation curve, or a change in total fluorescence; inactive = total fluorescence flat and polarisation flat or rising; no compound was filed as active; the % refers to the polarisation; negative = inhibition;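 note: % of control where 0% means no effect; inhibitors lower the polarisation; unlabelled MLL peptide was the positive control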
# Sfp PPTase inh – blocks B. subtilis Sfp PPTase activity; Q9F4F7; Biochemical Sfp PPTase activity, qHTS; Potency, µM, inactives show max response, negative = inhibition, usual class: inhibitors; 310,000 tested, 3.5% active; AID 1490; active = well fitted inhibition curve with a large enough effect; inconclusive = small, poorly fitted or top-dose-only effect, or another doubt; inactive = no such curve, though single readings can be large or run the other way;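 note: the enzyme is Sfp with the accession as filed and its product quenches rhodamine fluorescence; potency is the fitted concentration of half-maximal effect; 0% = enzyme reaction without inhibitor and -100% = no enzyme wells; top concentration of the series not given in the record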
#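 Sfp 15 nM + cpd, 15 min RT; start w/ rhodamine-CoA 5 uM, BHQ-2-YbbR 12.5 uM (final); 50 mM Hepes pH 7.6, 10 mM MgCl2, 0.01% NP-40, 0.01% BSA; read 525/598 nm at 0 and 30 min.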
# CtBP-E1A blk – inhibitors of CtBP/E1A interaction; AlphaScreen GST-E1A/His-CtBP binding, 1536-well; hits give low values; control for the full effect not named in the record; activity change, % (no concentration beside the values); 340,000 tested, 0.49% active; in the data active means activity change below about -65%; inconclusive means about -30% to -65%; inactive means above about -30%; note: % is set by controls: 0 for no effect and ±100 for the full control effect; compound concentration not given in the record
#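 Homogeneous bead-based format: GST-tagged E1A captured on glutathione donor beads, His-tagged CtBP on nickel acceptor beads; compounds precede bead addition by 2 h at 37 °C.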
# gsp antag – gsp mutant antagonism; gsp-mutant cells, cAMP HTRF, 30 min; control for the full effect not named in the record; 340,000 tested, 0.4% active; Potency, µM (series often up to 76.9 µM), without a hit: at the top dose activity change, negative = inhibition, hits mostly inhibitors; active = falling curve of any shape with a large fitted effect; inconclusive = falling curve, mostly with a smaller effect; inactive = flat or rising curve; cell line not stated here;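 note: intracellular cAMP measured with PDE inhibitor Ro 20-1724 present during compound exposure; potency is the fitted concentration of half-maximal effect; % is set by controls: 0 for no effect and ±100 for the full control effect; nearly all actives have a fitted effect of over 65% in size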
#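 HTRF cAMP measurement after 30 min RT detection following 30 min, 37C compound treatment alongside […] (added as 300 uM solution) in G418-selected cells seeded at 2000/well and grown 16–24 h.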
# TRPV1 potentiator – potentiators of human vanilloid receptor 1 (TRPV1) | Q8NER1 | 320,000 tested, 0.02% active | potentiation, % at 8.33 µM | TRPV1-expressing cells, Fluo-8 calcium influx, capsaicin EC20 potentiation; host cell line not named in the record; control for the full effect not named in the record; active means potentiation above 80%; inconclusive means 30% to 80%; inactive means below 30%; note: 0% is about no effect
# Target sequence (Q8NER1 whole entry, looked up): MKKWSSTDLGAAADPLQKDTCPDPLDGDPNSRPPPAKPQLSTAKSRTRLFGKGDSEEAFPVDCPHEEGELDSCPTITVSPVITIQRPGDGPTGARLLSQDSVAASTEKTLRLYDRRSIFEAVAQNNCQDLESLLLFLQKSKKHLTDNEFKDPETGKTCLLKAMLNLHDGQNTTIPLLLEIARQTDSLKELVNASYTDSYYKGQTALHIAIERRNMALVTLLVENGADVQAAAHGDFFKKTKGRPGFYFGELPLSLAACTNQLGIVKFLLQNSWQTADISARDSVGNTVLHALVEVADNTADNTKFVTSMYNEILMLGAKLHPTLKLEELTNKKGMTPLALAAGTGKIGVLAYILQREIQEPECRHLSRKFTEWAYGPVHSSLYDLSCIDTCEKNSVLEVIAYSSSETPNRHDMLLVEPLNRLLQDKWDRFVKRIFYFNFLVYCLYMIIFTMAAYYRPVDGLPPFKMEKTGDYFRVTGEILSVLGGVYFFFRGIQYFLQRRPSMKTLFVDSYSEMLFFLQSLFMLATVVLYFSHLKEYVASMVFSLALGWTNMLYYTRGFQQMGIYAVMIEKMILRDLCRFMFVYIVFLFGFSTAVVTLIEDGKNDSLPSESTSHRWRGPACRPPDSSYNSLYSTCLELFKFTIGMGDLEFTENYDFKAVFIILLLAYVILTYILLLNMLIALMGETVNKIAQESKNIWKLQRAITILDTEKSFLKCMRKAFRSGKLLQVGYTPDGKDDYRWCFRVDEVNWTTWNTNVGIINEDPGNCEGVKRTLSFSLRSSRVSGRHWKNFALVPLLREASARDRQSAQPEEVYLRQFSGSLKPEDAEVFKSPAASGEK
#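 Cells expressing TRPV1 were dye-loaded with Fluo-8 and read kinetically: 10 s baseline, 3 min after compound (agonist portion), then 2 min after EC20 capsaicin (allosteric enhancer portion). Calcium-bound dye fluorescence at 480/520 nm.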
# * = called active by the depositor; ? = inconclusive; . = no result given; & = joins results of further samples; [ ] = another dose, or the depositor's remark.
SMILES,gsp agonist,ClpP mod,Menin MLL FP FL,Sfp PPTase inh,CtBP-E1A blk,gsp antag,TRPV1 potentiator
CCOC(=O)c1c(-c2ccccc2)csc1NC(=O)C(C)NCc1ccco1 (centres undefined),0.5%[15.4 µM],.,2.7,?,-4.8,-31.7%,-5.9
CC(=O)N1CCN=C1SCc1ccc(C)cc1,6.5%,0.5%,1.6,11.7%,9.3,-9.4%,-4.7
CCOC(=O)c1nn(-c2ccccc2)c(=O)cc1SC(C)CC (centres undefined),?,0.6%,2.6,10.7%,8.0,-0.5%,-10.6
CCc1ccc(/C=C2/SC(=S)N(CCCC(=O)Nc3ccccc3C(=O)O)C2=O)cc1,?,-2.4%,.,16.4%,-3.2,?,-10.1
NC(=O)c1ccsc1NC(=O)CSc1nnc(Nc2ccccc2)s1,-22.2%,1.0%,12.9,-17.3%,.,-28.5%,19.8
Cc1cc(OCC(=O)N[C@@H](Cc2ccccc2)c2nc3ccccc3[nH]2)ccc1Cl,6.5%,-0.6%,3.8,16.6%,1.4,2.5%,-17.1
Cc1ccc(-n2nnnc2SCCNS(=O)(=O)c2ccccc2)cc1C,-52.1%[inhibitor],0.5%,0.0,4.5%,50.7,3.1%,7.6
COc1ccc(CC(=O)OCc2cc3cccc(C)c3[nH]c2=O)cc1,6.7%,-4.5%,20.4,14.4%,5.4,8.8%,0.5
CCN(Cc1ccccc1)S(=O)(=O)c1cc(C(=O)c2c(N)n(C)c(=O)n(C)c2=O)ccc1OC,?,0.8%,1.2,14.4%,.,-21.8%,4.5
Cc1oc(C)c(C(=O)NCCCC(=O)O)c1C(=O)NCCCC(=O)O,-56.4%[inhibitor],-1.0%,-0.4,5.9%,-0.4,0.8%[15.4 µM],13.6
CNC(=S)N1C2CCCC1CC(NC(=O)c1ccc(C)cc1)C2 (centres undefined),3.2%,-0.1%,.,.,.,4.4%,.
NC(N)=NC(N)=Nc1cccc2ccccc12,7.3%[15.4 µM],.,2.0,10.0%,-8.8,3.5%,6.7
Cc1cccc(C)c1OCC(=O)NC1CC1,-24.0%,-0.1%,.,50.1µM*,4.7,19.2%,-0.2
Cc1ccc2sc(NNC(=O)c3cc(=O)c4ccccc4o3)nc2c1C,32.6%,2.2%,?,8.91µM*,-3.2,-24.0%,9.4
CC1Cc2ccccc2N1C(=O)COC(=O)C1=COCCO1 (centres undefined),38.0%,-1.9%,2.0,7.1%,-3.8,15.1%,30.0
CC(C)(C)n1nc2c(c1NC(=O)COc1ccc3ccccc3c1)CS(=O)C2 (centres undefined),-22.4%,3.9%,2.2,6.5%,3.1,6.7%,?
O=C(N/N=C/c1cccc(O)c1)c1cc2c(ccc3ccccc32)o1,17.8%,?,.,-21.9%,-8.1,-22.9%,13.7
O=c1[nH]c(=O)c2nc(-c3ccc(Cl)cc3)cnc2[nH]1,10.5%[15.4 µM],.,-0.2,7.5%,0.0,.,-29.3
CCC(=O)N(CCC(c1ccccc1)c1ccco1)Cc1cccs1 (centres undefined),-33.5%,0.2%,12.1,50.1µM*,-2.4,-28.0%,-9.2
O=C(Cn1cccc1C(=O)c1ccccc1)NCc1ccc(Cl)cc1,6.3%,0.1%&3.5%,2.4,7.1%,7.4,5.1%,-0.3
CCOc1ccccc1C1N=C(c2ccc(OC)cc2)CC(c2ccccc2O)N1 (centres undefined),1.6%[15.4 µM],-0.5%,8.5,-1.4%,7.0,-9.3%,-5.4
COC(=O)C1=C(C(=O)OC)[C@@H]2N(Cc3ccccc3)c3ccccc3[C@@]23C[C@@H](CO)N(C(=O)NC2CCCC2)C3=N1,.,2.0%,-1.5,-2.4%,-8.3,-5.1%,23.0
c1ccc(-n2nnnc2Oc2cccc3cccnc23)cc1,-18.3%,-2.4%,4.6,4.6%,?,-4.9%,13.3
COc1ccccc1CNC(=O)c1ccc(NS(=O)(=O)c2cccs2)cc1,-1.8%[15.4 µM],1.4%,-11.5,3.4%,-0.3,0.3%,-21.9
Cc1ccc(Cl)cc1NC(=O)C[n+]1ccc(Cc2ccc([N+](=O)[O-])cc2)cc1,3.5%,-2.4%,-7.3,44.7µM*,-15.8,1.0%,-6.8

# Next section; the last 2 above are carried over.
SMILES,gsp agonist,ClpP mod,Menin MLL FP FL,Sfp PPTase inh,CtBP-E1A blk,gsp antag,TRPV1 potentiator
COc1ccccc1CNC(=O)c1ccc(NS(=O)(=O)c2cccs2)cc1,-1.8%[15.4 µM],1.4%,-11.5,3.4%,-0.3,0.3%,-21.9
Cc1ccc(Cl)cc1NC(=O)C[n+]1ccc(Cc2ccc([N+](=O)[O-])cc2)cc1,3.5%,-2.4%,-7.3,44.7µM*,-15.8,1.0%,-6.8
COc1ccccc1NC(=O)COC(=O)c1cc(C)nc2ccccc12,-22.1%,-2.7%,.,.,-1.9,?,-0.6
COc1ccc(NC(=S)N2CCN(S(=O)(=O)c3ccccc3)CC2)cc1,-1.3%,-0.2%,.,22.9%,1.1,-4.8%,-1.8
Cc1ccc(S(=O)(=O)c2ccc(NN)cc2)cc1,13.2%[15.4 µM],.,-0.2,2.9%,4.4,8.0%,7.3
COc1ccc2[nH]c3c(c2c1)CCN1C(=O)C(CC(=O)NCC24CC5CC(CC(C5)C2)C4)C[C@H](C(=O)N2CCOCC2)[C@@]31C (some centres undefined),.,-0.2%,.,.,-4.8,-19.3%,.
COCCNC(=O)CCCCCn1c(=S)[nH]c2ccccc2c1=O,?,0.5%,0.2,-0.6%,3.3,12.2%,-2.7
O=C(CSc1nc(C(F)(F)F)cc(=O)[nH]1)N1CCCC1,-13.1%[15.4 µM],4.2%,.,.,8.2,10.4%,-2.0
Cc1onc(-c2ccccc2)c1CNC(=O)Nc1ccc(C(F)(F)F)cc1,-8.1%[15.4 µM],.,0.9,11.0%,8.8,-7.4%,-6.4
CCOc1ccc(NC(=O)C2CC(=O)N(Cc3ccco3)C2)cc1 (centres undefined),-1.7%,0.4%,.,.,.,2.8%,-33.6
COc1ccc(C(=O)Nc2ccc3c4c(cccc24)CC3)cc1,-0.1%,1.0%,2.9,-1.2%,0.1,-12.8%,-33.9
N#Cc1ccc(S(=O)(=O)Nc2ccc3ccccc3n2)cc1,-45.1%[inhibitor],-14.4%,5.1,3.8%,6.6,-9.9%,?
CCC(C)C(NC(=O)c1ccccc1NC(=O)c1ccccc1)C(=O)O (centres undefined),?,-0.6%,0.6,-20.8%,2.9,?,14.3
Cc1c(N)cc[n+](CC(=O)c2ccccc2)c1C,6.7%[15.4 µM],.,-0.4,15.3%,1.1,15.6%,0.8
Cc1ccsc1C1C2=C(CCCC2=O)Nc2ncnn21 (centres undefined),-17.7%,-5.4%,0.1,1.7%,0.7,5.5%,-7.3
Cc1ccc(NS(=O)(=O)c2ccc(C(=O)N3CCCCCCC3)cc2)cc1,3.9%,-0.3%,.,-5.4%,-5.2,-5.9%,0.3
Cc1nc(C(=O)NCc2ccccc2)sc1C1(C)CC(c2cccnc2)=NO1 (centres undefined),.,0.0%,0.0,17.0%,2.5,-8.2%,-5.8
Cc1ccc(C(=O)c2c3ccccc3[n+]([O-])n2CCC(N)=O)cc1,.,-2.3%,0.8,11.2%,-13.8,0.2%,-4.4
CCCC(=O)Nc1ccc(C(=O)COC(=O)C2=COCCO2)cc1,-36.3%[inhibitor],-1.6%,.,.,4.3,-16.5%,-0.8
Cc1ccc(NC2(C(F)(F)F)N=C(c3ccccc3)NC2=O)nc1 (centres undefined),1.2%[15.4 µM],0.9%,0.2,8.3%,13.0,12.1%,17.6
O=C(O)CP(=O)(c1ccccc1)c1ccccc1,4.6%,-3.6%,-0.2,-1.8%,-2.1,4.8%,-2.7
Cc1ccc(-c2cc3c(nn2)-c2ccccc2C3=O)cc1,8.6%,1.5%,0.2,6.0%,-18.5,0.1%,-3.9
COc1ccc(CCNC(=O)c2cnccn2)cc1,-14.2%,1.0%,3.5,4.0%,4.7,3.5%,6.4
Cc1cc(C2C(=O)NC(=O)C2=O)c(C)cc1Br (centres undefined),1.4%,.,.,.,0.4,-5.2%,.
O=C(N=Nc1c(O)[nH]c2ccccc12)c1cc(-c2cccs2)[nH]n1,?,.,0.5,-28.1%,-8.8,-4.8%,3.6
CSC1=NSC2=NC(=O)/C(=C\c3cccs3)C(=N)N12,3.1%,1.6%,9.8,4.2%,2.0,35.5µM*,5.5
COc1ccc(CNC(=O)COC(=O)CN2C(=O)NC3(CCCC3)C2=O)cc1,10.5%,0.4%,.,.,4.8,5.1%,2.3
SMILES,gsp agonist,ClpP mod,Menin MLL FP FL,Sfp PPTase inh,CtBP-E1A blk,gsp antag,TRPV1 potentiator
COc1cc(CN2CCCC(CO)(Cc3ccccc3)C2)ccc1O (centres undefined),-3.9%[15.4 µM],?,9.6,-3.7%,-11.4,-8.3%,-15.6
COc1ccc(C2(C)NC(=O)N(CC(=O)Nc3ccc4[nH]c(=O)[nH]c4c3)C2=O)cc1 (centres undefined),8.4%[15.4 µM],1.3%,.,.,-1.3,7.5%,-22.2
Cc1cc(-c2nnc(SCC(=O)Nc3ccccn3)o2)no1,-6.2%[15.4 µM],-3.2%,0.3,14.1%,-22.6,5.5%,-2.2
O=C(c1ccc(Br)s1)N1CCN(c2ccccn2)CC1,-7.3%[15.4 µM],0.5%,-4.8,-3.5%,5.3,13.8%,-11.4
O=C(CCN1CCCCC1)NNC(=S)NC(=O)c1ccc(Br)cc1,5.7%[15.4 µM],.,4.0,13.5%,0.0,-7.7%,-5.2
COc1ccc(S(=O)(=O)N2CCCC(C(=O)NCc3ccncc3)C2)cc1 (centres undefined),-9.8%,-1.4%,-1.2,3.0%,13.9,5.3%,1.7
O=C(CS(=O)(=O)Cc1ccccc1)Nc1nc2ccccc2s1,?,-2.6%,1.5,27.4%,-2.3,-9.3%,7.1
Cc1ccc(CCC(=O)NCc2ccccc2)o1,-37.4%[inhibitor],.,0.4,5.0%,5.1,-0.9%,-11.0
O=S(=O)(Cc1ccccc1)NCc1cccnc1,9.8%,-5.0%,1.4,14.5%,-6.4,9.6%,0.5
O=C1Nc2ccccc2/C1=N/N=C/c1ccc(-c2ccc([N+](=O)[O-])cc2)o1,-34.1%[inhibitor],0.6%,-3.4,7.2%,4.9,1.6%,4.0
